HIV Env fusion = inhibitors of HIV-1 Env-driven cell-cell fusion, primary screen, HeLa-JRFL effector, CEM21 target cells, luciferase. inhibition, % at 12.3 µM. actives 1.1% (n = 360,000). AID 651610, 2012;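 active = mean replicate inhibition score of at least 50 and every replicate individually at or above 50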;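 also: 0% = plate neutral controls and 100% = maraviroc near 300 nM; one replicate is shown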
MT1-MMP act inh = blockers of MT1-MMP proenzyme processing, primary screen, HT1080 RFP-PRO-GFP cells, GFP/RFP fluorescence | Matrix metalloproteinase-14 (Homo sapiens), P50281 | GFP/RFP ratio fluorescence, overnight; percent of plate control window, DMSO zero | GFP/RFP ratio change, % at 20 µM | actives 0.061% (n = 360,000) | AID 651647, 2012;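 active = GFP/RFP ratio change of at least 30% with cell ATP level not reduced by more than half and red fluorescence within 50% of control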; also: strong numbers were not always called active
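Read-out: GFP/RFP fluorescence ratio; Test system: RFP-PRO-GFP reporter HT1080 cells; Compound dosing: single-point 20 µM compound, 1% DMSO; Times: overnight compound exposure at 37 °C.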
MT1-MMP act inh RFP = also measured in MT1-MMP act inh; calls as there; RFP signal change, %; measured here: RFP expression control read;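 0 = vehicle wells; hits needed this value within 50% of zero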
* = called active by the depositor. An excerpt; the hit share may differ from the screen's.

SMILES,HIV Env fusion,MT1-MMP act inh,MT1-MMP act inh RFP
CCOC(=O)C1=NNC(C(=O)OCC)C1c1ccccc1 (stereo not given),3,-3,3
Nc1nc2ccccc2cc1C(=O)NCc1ccc(-c2ccccc2)cc1,32,13,-28
COCCNc1ncnc2c1ncn2[C@H]1CN(Cc2cc(OC)c(OC)c(OC)c2)C[C@@H](CO)O1,12,6,10
Cc1ccc2c(NCc3ccco3)nc(NC(C)C)nc2c1,-22,13,3
COC(=O)[C@]1(Sc2ccccc2)CC(=O)N[C@@H]1c1ccccc1,3,0,3
O=C1OC(c2cccs2)Sc2ccccc21 (stereo not given),-13,6,8
Cc1cc(C)n2c(NC3CCCCC3)c(CC(C)C)nc2n1,16,0,-1
O=[N+]([O-])c1ccc(CS(=O)Cc2ccccc2)cc1 (stereo not given),-16,8,0
CC(C)C[C@@H]1CN(CCCC[C@H]2CNC(=O)C(=O)N2CCC2CCCCC2)C(=O)C(=O)N1CC1CCCCC1,-4,-4,-5
Clc1cccc(Cc2c(C3CCCCC3)nc3c4ccccc4ccn23)c1,-11,-11,1
Cc1ccc2c(Cl)c(C(=O)NCCCN3CCOCC3)sc2c1,-2,2,-2
O=C1O[C@@H](c2ccccc2)C[C@@H](O)[C@H](O)CCCCc2ccccc21,27,0,2
CCOC(=O)c1cc(-c2ccccc2)nc2c(O)cccc12,-18,-2,-4
Cc1ccccc1C(=O)N1CCC(C(=O)OCC(=O)Nc2cccc([N+](=O)[O-])c2C)CC1,-10,3,1
Cc1cccc(C)c1NC(=O)C(c1ccc(C#N)cc1)n1c(=O)c(-c2ccco2)nc2ccccc21 (stereo not given),-28,-10,5
CCN(CC)CCNC(=O)c1ccc(NC(=O)c2ccc(-n3cncn3)c([N+](=O)[O-])c2)cc1,-3,-7,4
Cc1cnc(-c2nc3ccccc3n2C(C(=O)NC(C)(C)C)c2ccccc2)cn1 (stereo not given),5,3,6
COC(=O)[C@@]12C[C@@H](CC(=O)NCC3CCCCC3)C(=O)N(Cc3ccc4c(c3)OCO4)C1=CCC(C)(C)C2,7,-2,-9
O=C1C=CC(=O)c2c(O)c(N3CCN(CCO)CC3)c(Cl)c(O)c21,-158,-6,20
O=C(Nc1ccc(F)cc1)C(c1cc2ccccc2o1)N1CCN(C(=O)c2ccco2)CC1 (stereo not given),-32,9,2
CCOC(=O)c1c(NC(=O)CN2CCN(c3cccc(Cl)c3)CC2)sc(C)c1C,-3,1,4
CCOC(=O)[C@]12CCCC=C1N(Cc1ccccc1)C(=O)[C@H](CC(=O)NCc1ccc(C)o1)C2,-3,4,7
CCCSc1nc2c([nH]1)c(=O)n(C)c(=S)n2C,23,5,-7
COc1ccc(-c2oc3c(c2C#CC2(O)CCCCC2)C(OC)CCC3)cc1 (stereo not given),37,1,-1
CCN(Cc1nc2cc(Cl)ccc2c(=O)[nH]1)C(=O)c1cc(C2CC2)nn1-c1ccccc1,86*,-5,-4
COc1ccc(NC(=O)CNC(=O)c2sc3ccccc3c2Cl)c(OC)c1,-6,-2,2
CC(C)C[C@H]1CN([C@@H](Cc2ccc(O)cc2)CN2CCCC2CN2C(=S)NC[C@@H]2Cc2ccccc2)C(=S)N1CC1CCCCC1 (stereo not given in full),-69,-1,-9
O=C(NCC1CC1)c1cc2c(c(-c3cccc(-c4ccccc4F)c3)n1)[C@H](CCO)N(C(=O)CC1CC1)C2,2,-6,-12
CC(=O)Oc1ccc(OC(C)=O)c2c1CC1(C)OC1(C)C2 (stereo not given),3,1,8
O=C(Nc1ccc2ccccc2c1)C(c1ccc(C(F)(F)F)cc1)n1c(=O)c(-c2cc3ccccc3[nH]2)nc2ccccc21 (stereo not given),-6,-11,-17
C=CCOC(=O)Nc1nc(CCNC(=O)OC(C)(C)C)c(C(=O)O)s1,-3,8,5
COC(=O)[C@@]12C[C@@H](CC(=O)NCc3cccc(C(F)(F)F)c3)C(=O)N(Cc3cccc4ccccc34)C1=CCC(C)(C)C2,11,-21,-22
Cc1cc2nc(-c3cccc(Br)c3)c(CC3CCCCC3)n2c(C)c1Br,0,-3,-6
O=C(OC1CC2CC1[C@H]1CCCCN1C2=O)N1CCOCC1 (stereo not given in full),-32,2,9
CN(C)c1ccc(C(=O)C(O)c2ccccc2Cl)cc1 (stereo not given),10,1,-14
COC(=O)[C@@]1(Cc2ccc(F)cc2)[C@H]2c3cc(C(=O)N(C)C)n(Cc4ccc(C)c(F)c4F)c3C[C@H]2CN1C(=O)c1ccccc1,-1,-15,-20
Cc1cccc(C)c1-n1nnnc1C(c1ccnc2ccccc12)N1CCN(C(=O)OCc2ccccc2)CC1 (stereo not given),13,-17,-23
O=C(C1=NOC2(C1)C(=O)Nc1ccccc12)N1CCCCC1 (stereo not given),11,2,0
COc1cc(-c2cc(O)c(-c3ccc4ccccc4n3)c(=O)[nH]2)cc(OC)c1OC,-37,-108,2
COc1ccc(C(=O)NCCN2CCC(n3c(=O)[nH]c4ccccc43)CC2)cc1F,-17,7,8
Oc1[nH]c2ccccc2c1N=Nc1c(F)c(F)c(F)c(F)c1F,-32,-12,1
COc1ccc2ccc(OC)c(/C=N/NC(=O)c3cc4ccccc4o3)c2c1,-28,5,-7
CC1(C(=O)NS(=O)(=O)c2ccccc2Cl)CCN1C(=O)C1(c2ccc(Cl)cc2)CC1 (stereo not given),-7,-1,3
CN(C)CCNc1ccc2ncn3c4ccc(O)cc4c(=O)c1c23,50,-42,6
CC(C)C[C@H]1CNC(=O)C(=O)N1C[C@@H]1CCCN1C[C@H](Cc1ccc(O)cc1)N1C[C@H](Cc2ccccc2)N(CC2CCCCCC2)C(=O)C1=O,11,5,3
CCCCOCCCNC(=O)C[C@@H]1C[C@@]2(C(=O)OC)CCCCC=C2N(Cc2ccccc2)C1=O,-214,3,-2
O=C(NC(=S)N1CC=CCC1)c1ccccc1,17,0,4
Clc1ccc(-c2cn(-c3nc4ccccc4s3)nn2)cc1,-75,7,-1
Cc1cc(C)nc(NC2=N[C@@H]3CCCC[C@H]3N2C(=O)Nc2cc(Cl)cc(Cl)c2)n1,4,1,0
c1ccc(-c2nn(-c3ccccc3)[n+](-c3ccccc3)n2)cc1,43,-13,-21

Following part.
SMILES,HIV Env fusion,MT1-MMP act inh,MT1-MMP act inh RFP
CCON1C(=O)C2(CCCCC2)C(=O)C12C=CCCC2 (stereo not given),-20,6,2
CC(C)(C)NC(=O)C(c1ccccc1)n1c(-c2ccc(-c3ccccc3)cc2)nc2ccccc21 (stereo not given),-77,0,-5
CC(C)CN1C(=O)CN(S(C)(=O)=O)CC1(C)C(=O)Nc1ccc2c(c1)OCCO2 (stereo not given),-13,13,6
COC(=O)C[C@@H]1CC[C@@H](NS(=O)(=O)c2cccc(OC)c2)[C@@H](CO)O1,-14,2,5
CC(C)CN1C(=O)CN(S(C)(=O)=O)CC1(C)C(=O)NCc1ccccc1 (stereo not given),-5,1,8
CCOC(=O)[C@]12CCC=C1N(Cc1ccc3c(c1)OCO3)C(=O)[C@H](CC(=O)N1CCC(c3ccccc3)CC1)C2,30,1,-4
O=C(NCc1ccccc1)C1c2ccccc2OCC(=O)N1Cc1ccco1 (stereo not given),-54,1,3
CCC(C)CN1C(=O)CN(S(C)(=O)=O)CC1(C)C(=O)NC(C)C (stereo not given),4,12,5
O=C1c2ccccc2C(c2nnnn2-c2ccc3c(c2)OCCO3)N1CCCN1CCOCC1 (stereo not given),-7,-2,0
COCCCn1cc(CN2CC(N(C)C)CS2(=O)=O)nn1 (stereo not given),6,3,9

Nothing new here: entries from further up.
SMILES,HIV Env fusion,MT1-MMP act inh,MT1-MMP act inh RFP
CC1(C(=O)NS(=O)(=O)c2ccccc2Cl)CCN1C(=O)C1(c2ccc(Cl)cc2)CC1 (stereo not given),-7,-1,3
CN(C)CCNc1ccc2ncn3c4ccc(O)cc4c(=O)c1c23,50,-42,6
CC(C)C[C@H]1CNC(=O)C(=O)N1C[C@@H]1CCCN1C[C@H](Cc1ccc(O)cc1)N1C[C@H](Cc2ccccc2)N(CC2CCCCCC2)C(=O)C1=O,11,5,3
CCCCOCCCNC(=O)C[C@@H]1C[C@@]2(C(=O)OC)CCCCC=C2N(Cc2ccccc2)C1=O,-214,3,-2
O=C(NC(=S)N1CC=CCC1)c1ccccc1,17,0,4
Clc1ccc(-c2cn(-c3nc4ccccc4s3)nn2)cc1,-75,7,-1
Cc1cc(C)nc(NC2=N[C@@H]3CCCC[C@H]3N2C(=O)Nc2cc(Cl)cc(Cl)c2)n1,4,1,0
c1ccc(-c2nn(-c3ccccc3)[n+](-c3ccccc3)n2)cc1,43,-13,-21
CCON1C(=O)C2(CCCCC2)C(=O)C12C=CCCC2 (stereo not given),-20,6,2
CC(C)(C)NC(=O)C(c1ccccc1)n1c(-c2ccc(-c3ccccc3)cc2)nc2ccccc21 (stereo not given),-77,0,-5
CC(C)CN1C(=O)CN(S(C)(=O)=O)CC1(C)C(=O)Nc1ccc2c(c1)OCCO2 (stereo not given),-13,13,6
COC(=O)C[C@@H]1CC[C@@H](NS(=O)(=O)c2cccc(OC)c2)[C@@H](CO)O1,-14,2,5
CC(C)CN1C(=O)CN(S(C)(=O)=O)CC1(C)C(=O)NCc1ccccc1 (stereo not given),-5,1,8
CCOC(=O)[C@]12CCC=C1N(Cc1ccc3c(c1)OCO3)C(=O)[C@H](CC(=O)N1CCC(c3ccccc3)CC1)C2,30,1,-4
O=C(NCc1ccccc1)C1c2ccccc2OCC(=O)N1Cc1ccco1 (stereo not given),-54,1,3
CCC(C)CN1C(=O)CN(S(C)(=O)=O)CC1(C)C(=O)NC(C)C (stereo not given),4,12,5
O=C1c2ccccc2C(c2nnnn2-c2ccc3c(c2)OCCO3)N1CCCN1CCOCC1 (stereo not given),-7,-2,0
COCCCn1cc(CN2CC(N(C)C)CS2(=O)=O)nn1 (stereo not given),6,3,9

Other results follow.
SMILES,HIV Env fusion,MT1-MMP act inh,MT1-MMP act inh RFP
CC(=O)c1nn(-c2ccccc2)c(=Nc2ccccc2)cc1C,17,-2,7
Cc1cc(NC(=O)NC(=O)c2ccccc2NC(=O)C(C)N)ccc1Oc1ncc(Br)cn1 (stereo not given),-42,16,-2
CC1(C(=O)O)CCCN(C(=O)c2cccnc2Oc2ccccc2)C1 (stereo not given),44,2,5
COc1ccc(CCN2C(=O)COc3ccccc3C2C(=O)NC(C)(C)C)cc1OC (stereo not given),-101,2,6
COc1ccc(CN2CCN(C(=O)c3ccc(S(=O)(=O)NCc4ccco4)cc3)CC2)cc1F,16,-12,-26
COCCN1C(=O)COc2ccccc2C1C(=O)NC1CCCCC1 (stereo not given),-99,2,3
COc1ccc(-c2nc3c(Cl)cc(C(F)(F)F)cn3c2Cc2ccsc2)cc1OC,14,1,-3
CCCCn1nnnc1C(c1cc2ccccc2o1)N(C)Cc1ccc(Cl)c(Cl)c1 (stereo not given),28,-6,-11
CCN1C/C(=C\c2cc(OC)c(OC)c(OC)c2)C2=NN(c3ccccc3)C(c3cc(OC)c(OC)c(OC)c3)C2C1 (stereo not given),20,-1,1
COC1OC2COC(c3ccccc3)OC2C(O)C1NC(=O)c1ccccc1 (stereo not given),-15,0,3

Complete entries as entered above. Values in the order: HIV Env fusion | MT1-MMP act inh | MT1-MMP act inh RFP
COCCNc1ncnc2c1ncn2[C@H]1CN(Cc2cc(OC)c(OC)c(OC)c2)C[C@@H](CO)O1 as listed: 12 | 6 | 10
CCC(C)CN1C(=O)CN(S(C)(=O)=O)CC1(C)C(=O)NC(C)C (stereo not given) as listed: 4 | 12 | 5

Source: PubChem
